Screens deposited in PubChem BioAssay by National Center for Advancing Translational Sciences (NCATS).
VDR inhibitor: vitamin D3 receptor (human) inhibition; P11473; VDR-SRC2-3 peptide fluorescence polarization, 2 h; Potency, µM, for the others: max response, negative = inhibition, usual class: inhibitors; 0.93% of 400,000 active; AID 504847; active means well fitted inhibition curve with a large enough effect; inconclusive means small, poorly fitted or top-dose-only effect, or another doubt; inactive means no such curve, though single readings can be large or run the other way; further: series mostly up to about 120 µM
Target sequence (P11473 whole entry, looked up): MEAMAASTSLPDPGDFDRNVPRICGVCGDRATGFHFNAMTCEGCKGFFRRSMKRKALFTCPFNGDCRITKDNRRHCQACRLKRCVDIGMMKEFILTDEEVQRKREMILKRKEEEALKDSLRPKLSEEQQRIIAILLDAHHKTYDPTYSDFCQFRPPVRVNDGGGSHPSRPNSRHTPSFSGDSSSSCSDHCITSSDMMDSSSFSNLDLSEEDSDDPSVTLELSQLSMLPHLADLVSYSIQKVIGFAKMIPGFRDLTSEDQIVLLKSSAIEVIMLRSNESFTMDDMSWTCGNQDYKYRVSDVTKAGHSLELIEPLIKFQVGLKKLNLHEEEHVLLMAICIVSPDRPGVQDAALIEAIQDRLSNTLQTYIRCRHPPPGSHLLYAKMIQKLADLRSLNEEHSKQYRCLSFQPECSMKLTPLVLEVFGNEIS
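Inhibition of the VDR/SRC2-3 peptide interaction is quantified by fluorescence polarization. Compounds (23 nl, pintool) incubate with the reagents for 2 hours at ambient room temperature.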
* hit, by the source's call; ? = inconclusive; & = joins results of further samples. On the % scale 0 is the no-effect control and ±100 the full control effect; potency means the concentration at half of the fitted maximal effect. This is a subset. The share of hits here may be higher or lower than overall.

smiles	VDR inhibitor
COc1cc(C(=O)c2ccc3c(c2)OCO3)cc(OC)c1OC	-17%
CCOc1ccc(NC(=O)C2CCCCN2S(=O)(=O)c2ccccc2)cc1 (centres undefined)	-4%
CCN(CC)S(=O)(=O)c1ccc(N2CCN(CCO)CC2)nc1	-7%
C/C(=C\CO)CCC(C)CCCC(C)CCCC(C)C (centres undefined)	-3%
Cn1c(SCC(=O)Nc2ccc3c(c2)n(C)c(=O)n3C)nnc1-c1ccncc1	10%
CC(C)(C)C1(C)OC(=O)C(=Cc2ccc(OCC(=O)Nc3ccccc3)cc2)C(=O)O1 (centres undefined)	11%
O=C(NCCN1CCOCC1)c1ccc(CS(=O)(=O)c2ccc(Cl)cc2)o1	1%
Cc1c(NC(=O)C(C)OC(=O)/C=C/c2ccc(OC(F)F)cc2)c(=O)n(-c2ccccc2)n1C (centres undefined)	0%
C[C@]12CCC(=O)C=C1[C@@H]1C[C@H]1[C@H]1[C@@H]3[C@@H]4C[C@H]4[C@@]4(CCC(=O)O4)[C@@]3(C)CC[C@@H]12	?
Cc1nn(CCCC(=O)NCc2ccc(Cl)cc2)c(C)c1[N+](=O)[O-]	-22%
CC(=O)c1sc(NCc2ccccc2)nc1C	-4%
O=C(N/N=C/c1ccccn1)c1cc(-c2ccccc2Cl)n[nH]1	2%
Cc1cc(C(=O)COC(=O)c2ccc(F)cc2F)c(C)n1C1CC1	-23%
CCC1=NN2C(=N)/C(=C\c3ccc(OCCOc4ccc(NC(C)=O)cc4)c(OC)c3)C(=O)N=C2S1	-28%
CC(C)(C)OC(=O)N1CCN(C(=O)c2[nH]cnc2C(=O)NCC(=O)OCc2ccccc2)CC1	-4%
O=C1c2ccc([N+](=O)[O-])cc2C(=O)N1c1ccc(Cl)cn1	6%
Cc1ccc(N2C(=O)N(Cc3ccccc3C)c3ccccc3S2(=O)=O)cc1	-11%
Cc1n[nH]c(C)c1S(=O)(=O)N1CCCC(C(=O)NCc2ccc(F)cc2)C1 (centres undefined)	-8%
CC(=O)Nc1ccc(NC(=O)c2c(-c3ccccc3)noc2C)cc1	-6%
Cc1ccccc1Cn1cc(NC(=O)c2nc3ncccn3n2)cn1	6%
O=S(=O)(c1ccc(F)c(F)c1)N1CCN(Cc2ccc3c(c2)OCO3)CC1	7%
Cc1ncc(CN2CCC(n3nccc3NC(=O)c3ccccc3)CC2)s1	-11%
CC1(C)NC(=O)N(CC(O)CN(Cc2ccccc2)Cc2ccccc2)C1=O (centres undefined)	2%
O=C(O)CSc1nnc(-c2ccccc2)c(-c2ccccc2)n1	?

A second format for some results above.
CC1(C)NC(=O)N(CC(O)CN(Cc2ccccc2)Cc2ccccc2)C1=O (centres undefined)
- VDR inhibitor: 2%

Cc1ccccc1Cn1cc(NC(=O)c2nc3ncccn3n2)cn1
- VDR inhibitor: 6%

Going on with the list:
smiles	VDR inhibitor
O=S(=O)(c1ccc(-c2csc(-c3cccnc3)n2)cc1)N1CCCC1	-15%
CCOc1ccc(-c2nc(S(=O)(=O)c3ccccc3)c(NC)o2)cc1	6%
Cc1cc(C(=O)Nc2ccccc2N2CCOCC2)no1	9%
COc1ccc(NC(=O)CSc2ccc3nnc(-c4cccnc4)n3n2)c(OC)c1	-10%
CCc1ccc(NC(=O)CSc2c(C)cnc3c2c(=O)n(C)c(=O)n3C)cc1	11%
CCOc1cc(CNC2CCCC2)c(Cl)cc1OCC(=O)Nc1ccccc1	-8%
Cc1ccc(F)cc1NC(=O)CCc1c(C)nn(-c2ccc(N3CCCC3)nn2)c1C	13%
NC(=S)Nc1cc2ccccc2c2ccccc12	-14%
COc1cccc(C(=O)Nc2cccc(OCc3cc(=O)n4c5c(sc4n3)CCCC5)c2)c1	4%
COc1ccc(NC(=O)Cn2ncc3c([nH]c4ccccc43)c2=O)cc1Cl	-6%
COc1ccc(-c2nc(SCC(=O)N3CCC(C)CC3)n[nH]2)cc1	10%
O=C(c1ccccc1)c1cc(Cl)ccc1N1C(=O)C=CC1=O	25µM*
CC(C)C(=O)Nc1cccc(NC(=S)NC(=O)c2ccc([N+](=O)[O-])cc2)c1	11%
Cc1cccn2c(=O)c3cc(C(=O)NCc4ccco4)c(=N)n(C4CCCCC4)c3nc12	-6%
c1ccc(-n2cccc2CNC2CCCCC2)cc1	6%
Cc1ccc(S(=O)(=O)N2CCCCC2CCNC(=O)C(=O)NCc2ccncc2)cc1 (centres undefined)	-11%
O=C(O)c1ccc(N=NNc2cccc([N+](=O)[O-])c2)cc1	4%
CN(Cc1ccccc1)C(=O)Cn1c(=O)oc2cc(S(=O)(=O)NCc3ccccc3)ccc21	2%
COC(=O)C1(C)CC1(c1ccccc1)c1ccccc1 (centres undefined)	-14%
Cc1nn(C)c(Oc2cccc(Cl)c2)c1C=O	-11%
Cc1ccsc1/C=C1\CCc2ccccc2C1=O	-4%
O=C(NCc1ccccc1Br)c1ccc(-n2cnc3cccnc32)cc1	-1%
COc1ccccc1C(=O)NCC(=O)NCc1cc(=O)n(C)c(=O)n1C	-12%
COc1ccc(CNC(=O)CN2C(=O)c3ccc([N+](=O)[O-])cc3C2=O)cc1	-15%

Among those listed so far, these contain a furan ring, fused or not.
smiles	VDR inhibitor
O=C(NCCN1CCOCC1)c1ccc(CS(=O)(=O)c2ccc(Cl)cc2)o1	1%
Cc1cccn2c(=O)c3cc(C(=O)NCc4ccco4)c(=N)n(C4CCCCC4)c3nc12	-6%

(next part)
smiles	VDR inhibitor
NC(N)=NCCCC(NC(=O)C(N)Cc1ccc(O)cc1)C(=O)O (centres undefined)	-5%
CC(C)[C@H](Nc1ncnc2c1oc1ccccc12)C(=O)O	15%
O=S(=O)(c1ccc(Cl)s1)N1CCN(Cc2ccccc2)CC1	-5%
Cc1ccc(/C=C2\CCC3=C2OC(N)=C(C#N)C3c2ccc(C)cc2)cc1 (centres undefined)	?
CN(C(=O)c1ccccn1)c1nnc(-c2ccccn2)s1	5%
CCOC(=O)c1c(C)oc2c1c(C(c1cccnc1)N1CCCCC1)c(O)c1ccccc12 (centres undefined)	-17%
CC(=O)O[C@H]1CC(=O)OC(C)(C)C2CC(=O)[C@]3(C)C(CC[C@@](C)([C@@H](O[C@@H]4O[C@H](CO)[C@@H](O)[C@H](O)[C@H]4O)c4ccoc4)[C@@]34O[C@@H]4C(=O)O)[C@]21C (some centres undefined)	4%
COc1cccc(NC(=O)C2CCCN(c3ncnc4onc(C)c34)C2)c1 (centres undefined)	13%
CC(C)Sc1ncnc2c1cnn2-c1ccccc1	0%
CC(=O)Nc1cccc2c1Cc1cc([N+](=O)[O-])ccc1-2	6%
Oc1ccc(-c2csc(Nc3ccccn3)n2)cc1O	-15%
CC(Oc1ccccc1F)C(=O)N1CCC(c2nc3ccccc3o2)CC1 (centres undefined)	-2%

New compounds follow
smiles	VDR inhibitor
Cc1ccc(C)c(N2CCN(C3=C(c4ccccc4)C(=O)c4ccccc43)CC2)c1	-14%
O=C(NCC1CCCO1)c1cnn2c1NC(c1ccccc1)CC2C(F)(F)F (centres undefined)	8%
Cc1ccc(NC(=O)COC(=O)c2ccco2)cc1	0%
CCOC(=O)C1=C(CCc2ccccc2)NC(=O)NC1c1ccc2ccccc2c1 (centres undefined)	-3%
Cc1ccc(S(=O)(=O)NCCc2nnc3ccc(SCC(=O)Nc4ccc(F)cc4F)nn23)cc1	11%
CCN(CC(=O)Nc1c(F)cccc1F)C(=O)c1cccc(S(=O)(=O)N2CCc3ccccc3C2)c1	5%
CC1Cc2cc(-c3csc(N)n3)ccc2O1 (centres undefined)	-4%
CCOc1ccccc1C(=O)Nc1cccc2ccc(C)nc12	11%
CCOc1ccc2nc(SCC(=O)Nc3ccc4c(c3)OCO4)sc2c1	-22%
NS(=O)(=O)c1cccc(NC(=O)CCN2C(=O)C3CCCCC3C2=O)c1 (centres undefined)	-2%
CC(=O)C1=C(C)Nc2ncnn2C1c1ccc(O)cc1 (centres undefined)	2%
CC(=O)Oc1c(C)c(=O)n(C)c2ccccc12	-12%
CCN(CC)C(=O)Cn1cc(S(=O)(=O)CC(=O)NCCc2ccc(OC)c(OC)c2)c2ccccc21	-1%
Cc1cc(C)nc(SCCCNCc2c(F)cccc2Cl)n1	10%
CCOc1ccc(NS(=O)(=O)c2ccc(NS(C)(=O)=O)cc2)cc1	2%
CCCN1C(=O)/C(=C\C=C2\N(CC)c3ccccc3C2(C)C)SC1=S	9%
COc1cc(C(=O)NNC(=O)c2ccc(NC(C)=O)cc2)cc(OC)c1OC	4%
Cc1cccc(-c2nnc(SCC#N)n2-c2ccccc2)c1	11%
CC(C)=C1SC(N2CCN(c3cccc(C(F)(F)F)c3)CC2)=NC1=O	-2%
CC1CCN2c3ccccc3CC3(C(=O)OC(C)(C)OC3=O)C2C1 (centres undefined)	-18%
Cc1cccc(NC(=O)CCC(=O)c2cccs2)n1	-8%
O=[N+]([O-])c1ccc2nc(C(O)C(O)c3nc4ccc([N+](=O)[O-])cc4[nH]3)[nH]c2c1 (centres undefined)	-9%
COc1ccc(CCC(=O)N(C)CC(=O)Nc2ccc(N3CCOCC3)cc2)cc1	-20%
O=C(Nc1nnc(C2CCCCC2)s1)c1cccs1	-3%
O=S1(=O)N=C(N/N=C/C=C/c2ccccc2)c2ccccc21	-28%
C=CCc1c(C)nc(C)nc1N/N=C/c1ccccc1O	-6%
C=CCNC(=S)NNC(=O)c1ccc(OC(C)C)cc1	-6%
CC[C@H](NC(=O)[C@H](CCCN=C(N)N)NC(=O)[C@H](Cc1c[nH]c2ccccc12)NC(=O)[C@@H](N)CS)C(=O)N[C@@H](CCCN=C(N)N)C(=O)N[C@@H](Cc1ccc(O)cc1)C(N)=O	40µM*
COc1ccc(C2=NN(C(=O)c3ccccc3)C(c3ccc(OC)c(OC)c3)C2)cc1OC (centres undefined)	19%
COc1ccccc1/C=C/c1nc2ccccc2c(=O)o1	-6%
CCCCCCCCN1C(=O)N(C)C(N(O)C(=O)NC)C1(C)C (centres undefined)	6%
CCN(CC)CCCNc1oc(/C=C/c2ccc(OC)c(OC)c2)nc1C#N	4%
CCCCCCCCC1=NCCc2c1[nH]c1ccccc21	?
Cc1c(C(=O)NC2CCCc3ccccc32)oc2ccc(S(=O)(=O)N3CCCCC3)cc12 (centres undefined)	3%
CC(C)(C)NC(=O)c1ccccc1NC(=O)c1ccc2c(c1)OCO2	5%
Cc1ccc(C(=O)COC(=O)CNC(=O)COc2ccccc2C)cc1C	-15%&-10%
CCOC(=O)c1ccccc1NC(=O)CSc1nnc(CC)n2c1cc1occc12	-7%
Cc1ccccc1C1CC(=O)c2ccccc2C1C (centres undefined)	4%
O=C(Cn1c(=O)oc2ccccc21)NCC1COc2ccccc2O1 (centres undefined)	4%
COc1cc(=O)n2c(n1)SCCC2	15%
C=CCSc1nc2c(cnn2-c2ccccc2)c(=O)n1N	5%
CSc1nc(-c2ccccc2)nc(N2CCN(C)CC2)c1C(C)=O	12%
COC(=O)Cn1c2ccc(C)cc2c2nc(C)sc21	?
Cc1ccccc1C(=O)Nc1nnc(-c2ccc(F)cc2)o1	1%
COc1cc(NC(=O)COC(=O)c2ccc(C)c(S(=O)(=O)N3CCCCC3)c2)c(C)cc1[N+](=O)[O-]	11%
Cc1ccc2oc(=O)cc(CN3CCN(Cc4ccccc4)CC3)c2c1	14%
C/C=C(\C)C(=O)NCCN1C2=NC[C@H](C(C)C)N2C[C@H]1Cc1ccc(O)cc1	-5%
O=C(CCNC(=O)c1ccc(Br)cc1)NCCCSc1ccccc1	-17%
O=C(NCCN1CCCC1)C1CCN(S(=O)(=O)N2CCC3(CC2)OCCO3)CC1	9%
O=C(CN1CCCC1)N1CCCc2c1c(=O)oc1ccc(OCc3ccccc3)cc21	-8%
Cc1cccc(C(=O)O/N=C(\N)c2ccc(Br)cc2)c1	12%
COc1ccc(-c2cc(C(F)F)n3ncc(C(=O)N4CCCCC4)c3n2)cc1	-2%
COc1nc(N/N=C/c2cc3c(cc2Br)OCO3)nc(N2CCOCC2)n1	24%
CC(C)NC(=O)CSc1nc2ccccc2n1-c1ccccc1	-9%
COC(=O)Cc1ccc(NC(=S)NCCCN2CCOCC2)cc1	9%
CCn1c(=O)n(CC)c2cc(S(=O)(=O)N3CCc4ccccc43)ccc21	4%
CC(=O)Nc1cc2cc(NS(=O)(=O)c3ccc(Cl)cc3)ccc2oc1=O	7%
Cc1nnc(NC(=O)CCC(=O)NCc2cccs2)s1	5%
O=C(CSc1nnc(-c2ccco2)n1Cc1ccccc1)OC1CCCCC1	-9%
COc1ccc(CCCc2nnc(SCc3nc4ccccc4c(=O)[nH]3)n2C)cc1C	20%

Other records
smiles	VDR inhibitor
N#Cc1cccc(NC(=O)CN2C(=O)NC(Cc3ccccc3)C2=O)c1 (centres undefined)	-3%
Cc1cc(C(=O)Nc2ccc(C(=O)O)cc2)c(C)o1	8%
COc1cccc(NC(=O)CN2C(=O)c3cccc4cccc2c34)c1	-8%
CC1(C)CC(=O)C(C=NCCN2CCN(C(=S)Nc3ccc(F)cc3)CC2)=C(O)C1	-2%
COc1ccc(S(=O)(=O)ON=C2CC(C)(C)N(C(C)=O)C(C)(C)C2)cc1	1%
O=C(NC(Cc1ccccc1)C(=O)O)/C(=C\c1cccc([N+](=O)[O-])c1)NC(=O)c1ccco1 (centres undefined)	-1%
COc1cccc(/C=C/C(=O)OCC(=O)c2ccc3c(c2)NC(=O)CO3)c1OC	6%

Entries from the list above containing a thiophene ring, fused or not (five):
smiles	VDR inhibitor
Cc1ccsc1/C=C1\CCc2ccccc2C1=O	-4%
O=S(=O)(c1ccc(Cl)s1)N1CCN(Cc2ccccc2)CC1	-5%
Cc1cccc(NC(=O)CCC(=O)c2cccs2)n1	-8%
O=C(Nc1nnc(C2CCCCC2)s1)c1cccs1	-3%
Cc1nnc(NC(=O)CCC(=O)NCc2cccs2)s1	5%
